# Vaccinia stage: blocks a specific stage of Vaccinia orthopoxvirus infection, primary screen, cell-based, single point | Vaccinia-infected cells, mCherry/Venus stage reporter fluorescence; hits give low values; some inactives read as strong as hits | activity change (mCherry), % (no concentration beside the values) | 0.01% of 89,000 active | AID 1053133, 2014;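 active = mCherry past -33% and 40 or more points under the early reporter, replicates agreeing; inconclusive = past -33% without that gap or agreement; tested in A549 cells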;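 also: scaled between vehicle wells and reference inhibitor wells; 23 nL library stock went into each well; one replicate is shown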
# Vaccinia stage Venus: recorded beside Vaccinia stage, whose call it bears; activity change (Venus), %; measured here: Venus reporter, other viral stage;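 negative = less Venus signal; first of two replicates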
# An asterisk follows results filed as active; ? = inconclusive; / = not tested or not shown.
SMILES,Vaccinia stage,Vaccinia stage Venus
COc1ccc2c3c([nH]c2c1)[C@H](CO)N(C(=O)Nc1ccc(F)cc1)CC31CCN(S(=O)(=O)c2cccc(C)c2)CC1,-2,2
CN(C)C(=O)c1cccc(-c2ccc([C@@H]3[C@@H](CO)N4C(=O)CN(C(=O)C5CCCC5)C[C@H]34)cc2)c1,-4,-2
O=C(C[C@H]1CC[C@@H](NC(=O)Nc2ccccc2F)[C@H](CO)O1)NCc1ccc(Cl)cc1,23,21
C[C@H](CO)N1C[C@H](C)[C@@H](CN(C)C(=O)Nc2ccc(F)cc2)Oc2ncc(Br)cc2C1=O,8,-2
CO[C@H]1CN(C)C(=O)c2cc(NC(=O)c3cnccn3)ccc2OC[C@@H](C)NC[C@H]1C,5,5
C[C@H](CO)N1C[C@H](C)[C@H](CN(C)C(=O)Cc2cccnc2)Oc2ncc(-c3cncnc3)cc2C1=O,31,14
COc1ccc(S(=O)(=O)N2CCCCN3[C@H](C2)[C@H](c2ccc(C#CC4CC4)cc2)[C@@H]3CO)cc1,2,-12
CC(=O)N(C)C[C@@H]1Oc2cc(C#Cc3ccc(F)cc3)ccc2S(=O)(=O)N([C@@H](C)CO)C[C@H]1C,?,/
C[C@H]1CN([C@@H](C)CO)C(=O)c2cccc(NC(=O)c3cnccn3)c2O[C@H]1CN(C)S(C)(=O)=O,16,17
CC(C)NC(=O)N(C)C[C@@H]1Oc2ncc(Br)cc2C(=O)N([C@H](C)CO)C[C@@H]1C,26,9
CNC[C@@H]1Oc2ccc(NC(=O)Nc3c(C)noc3C)cc2C(=O)N([C@H](C)CO)C[C@H]1C,-3,2
C/C=C/c1cnc2c(c1)C(=O)N([C@@H](C)CO)C[C@@H](C)[C@H](CN(C)S(=O)(=O)c1ccc(F)cc1)O2,0,-7
C[C@@H]1CN([C@@H](C)CO)C(=O)Cc2cc(NS(=O)(=O)c3ccc(Cl)cc3)ccc2O[C@H]1CN(C)C(=O)Nc1ccc(F)cc1,13,10
COc1ccc2c3c(n(C)c2c1)[C@H](CO)N(C(=O)C1CCCC1)CC31CCN(C(=O)c2ccncc2)CC1,3,0
COc1ccc(NC(=O)N2CC[C@@H]3[C@H]2c2cc(-c4cccc(C(=O)N(C)C)c4)ccc2N(C)[C@H]3CO)cc1,-6,-10
C[C@H]1CCCCO[C@H](CN(C)S(=O)(=O)c2cn(C)cn2)[C@@H](C)CN([C@@H](C)CO)C(=O)c2cc(NS(=O)(=O)c3cccs3)ccc2O1,20,12
N#C[C@@H]1[C@@H](c2ccccc2)[C@H](CO)N1C(=O)c1ccccc1F,12,14
CC(=O)N(C)C[C@@H]1Oc2ncc(C#Cc3ccccc3)cc2C(=O)N([C@@H](C)CO)C[C@H]1C,10,3
CC(C)C#Cc1ccc2c(c1)O[C@@H](CN(C)C(=O)C1CC1)[C@H](C)CN([C@@H](C)CO)S2(=O)=O,2,-4
O=C(N[C@H]1CC[C@@H](CCn2cc(C3CC3)nn2)O[C@@H]1CO)c1cccnc1,3,5
N#C[C@H]1N[C@@H](CO)[C@H]1c1ccc(C2=CCCC2)cc1,8,16
O=C1C2C=C(Br)[C@H](C[C@@H]2OCCCCCCO)[C@@]12CO2,9,4
CCC(=O)N1CCCCN2[C@H](CO)[C@@H](c3ccc(-c4ccc(F)cc4)cc3)[C@@H]2C1,1,-22
Cc1noc(C)c1NC(=O)N1C[C@@H](O)COC[C@@H]2O[C@@H](CC(=O)NCC3CCCCC3)CC[C@H]21,7,2
CCCC#Cc1ccc([C@@H]2[C@@H](CO)N3C(=O)CN(S(=O)(=O)Cc4ccccc4)C[C@@H]23)cc1,-2,-5
O=C(C1=C[C@@H](c2ccc3c(c2)OCO3)C[C@@H](OCc2ccc(CO)cc2)O1)N1CCN(Cc2ccccc2)CC1,6,5
CO[C@@H]1CN(C)C(=O)c2cc(NS(C)(=O)=O)ccc2OC[C@H](C)NC[C@H]1C,8,12
COc1ccc2c3c([nH]c2c1)[C@H](CO)N(CC1CC1)CC31CN(C(=O)c2ccc(F)cc2)C1,-16,-4
COCC(=O)N(C)C[C@@H]1Oc2cc(-c3ccc(OC)cc3)ccc2S(=O)(=O)N([C@H](C)CO)C[C@H]1C,7,-4
CCC(=O)Nc1ccc2c(c1)OC[C@H](C)N(Cc1ccccc1F)C[C@H](C)[C@@H](OC)CN(C)C2=O,-21,-13
CCC(=O)N1C[C@H]2[C@@H](c3ccccc31)[C@H](CO)N2Cc1ccccc1Cl,11,7
C[C@H]1CN([C@@H](C)CO)C(=O)Cc2cc(NS(=O)(=O)c3ccccc3)ccc2O[C@H]1CN(C)C(=O)Nc1cccc2ccccc12,23,20
C[C@H](CO)N1C[C@H](C)[C@H](CN(C)C(=O)Nc2ccccc2)Oc2ncc(C#CC3CC3)cc2C1=O,-9,-4
CO[C@@H]1CN(C)C(=O)c2ccc(NC(=O)C3CCCC3)cc2OC[C@@H](C)N(C(=O)CC2CC2)C[C@@H]1C,21,22
Cc1ccccc1S(=O)(=O)N1C[C@@H](O)COC[C@H]2O[C@@H](CC(=O)N3CCOCC3)CC[C@@H]21,4,3
Cc1ccc(-c2cnc3c(c2)C(=O)N([C@H](C)CO)C[C@H](C)[C@H](CN(C)C(=O)Cc2ccncc2)O3)cc1,-20,-21
CO[C@H]1CN(C)C(=O)c2cc(NC(=O)c3ccno3)ccc2OC[C@@H](C)NC[C@H]1C,5,30
COc1cccc(C#Cc2ccc([C@@H]3[C@@H](C#N)N(C(=O)C4CCC4)[C@H]3CO)cc2)c1,?,/
COC(=O)C[C@H]1CC[C@H]2[C@@H](COC[C@H](O)CN2S(=O)(=O)c2ccccc2C)O1,0,2
CN(C)C(=O)[C@@H]1[C@@H](CO)[C@@H]2Cn3c(ccc(-c4ccccc4F)c3=O)[C@H]1N2C,10,11
CCCNC(=O)N1[C@H](CO)[C@@H]2c3ccccc3N(C(=O)c3ccc(F)cc3)C[C@@H]21,14,15
O=C(Cc1cccnc1)N1CCCCN2[C@H](CO)[C@H](c3ccc(/C=C/c4ccccc4)cc3)[C@@H]2C1,?,/
CC(C)CC#Cc1cnc2c(c1)C(=O)N([C@@H](C)CO)C[C@@H](C)[C@@H](CN(C)C(=O)Nc1cccc(F)c1)O2,?,/
O=S(=O)(Cc1ccccc1)N1[C@H](CO)[C@@H](c2ccccc2)C12CN(CCC(F)(F)F)C2,-12,-9
CCCNC(=O)N(C)C[C@@H]1Oc2cc(C3=CCCCC3)ccc2S(=O)(=O)N([C@@H](C)CO)C[C@H]1C,-6,-6
N#C[C@@H]1[C@H](c2ccccc2)[C@H](CO)N1S(=O)(=O)c1ccc(F)cc1,15,2
O=C(NCC[C@@H]1CC[C@H](NS(=O)(=O)c2cccc(F)c2)[C@H](CO)O1)C1CCCCC1,6,-2
C[C@H](CO)N1C[C@H](C)[C@H](CN(C)C(=O)N[C@H](C)c2ccccc2)OCc2ccccc2-c2ccccc2C1=O,6,9
COc1ccc(S(=O)(=O)N(C)C[C@H]2Oc3c(NC(=O)c4cc(C)nn4C)cccc3C(=O)N([C@@H](C)CO)C[C@@H]2C)cc1,1,0
COc1cccc(-c2ccc3c(c2)O[C@@H](CN(C)C(=O)C2CCOCC2)[C@@H](C)CN([C@H](C)CO)S3(=O)=O)c1,-8,-12
CO[C@H]1O[C@H](CO)[C@@H](OC(=O)Nc2cccc(F)c2)[C@@H]2OC(=O)[C@@H](Cc3ccccc3)C/C=C/C[C@H](Cc3ccccc3)C(=O)O[C@@H]12,-21,-15
CC(C)CC#Cc1ccc2c(c1)O[C@@H](CN(C)C(=O)c1ccccc1)[C@@H](C)CN([C@@H](C)CO)S2(=O)=O,?,/
CO[C@@H]1CN(C)C(=O)c2cc(NC(=O)CC(F)(F)F)ccc2OC[C@@H](C)N(S(=O)(=O)c2cn(C)cn2)C[C@H]1C,30,19
COc1ccc(NC(=O)Nc2ccc3c(c2)C(=O)N([C@@H](C)CO)C[C@@H](C)[C@@H](CN(C)C(=O)Nc2ccc(OC)cc2)OCCCC[C@H](C)O3)cc1,47,16
COc1ccc(C#Cc2ccc3c(c2)O[C@@H](CN(C)C(=O)CN2CCOCC2)[C@H](C)CN([C@@H](C)CO)S3(=O)=O)cc1,?,/
C[C@@H]1CN([C@H](C)CO)C(=O)c2cccc(NC(=O)c3ccncc3)c2O[C@@H]1CN(C)Cc1ccc(C(=O)Nc2ccccc2N)cc1,-19,-6
C[C@@H]1CN([C@@H](C)CO)C(=O)Cc2cc(NC(=O)CCN3CCOCC3)ccc2O[C@H]1CN(C)Cc1ccc(Oc2ccccc2)cc1,?,/
O=C(NCc1ccc(F)cc1)[C@@H]1C[C@@H]2C(=O)N3CCC[C@H]3C(=O)N2[C@@H]1c1ccc(O)cc1,11,6
CN(C)CCCNC(=O)C[C@@H]1CC[C@@H]2[C@H](COC[C@H](O)CN2S(=O)(=O)c2ccc(Cl)cc2)O1,-3,2
C[C@H](CO)N1C[C@H](C)[C@H](CN(C)Cc2ccc(C(=O)O)cc2)OCCCC[C@H](C)Oc2ccc(NC(=O)Nc3ccccc3)cc2C1=O,30,23

# Exported as labelled records: part of the list above
compound: CC(C)CC#Cc1ccc2c(c1)O[C@@H](CN(C)C(=O)c1ccccc1)[C@@H](C)CN([C@@H](C)CO)S2(=O)=O
- Vaccinia stage: ?
- Vaccinia stage Venus: /

compound: CO[C@@H]1CN(C)C(=O)c2cc(NC(=O)CC(F)(F)F)ccc2OC[C@@H](C)N(S(=O)(=O)c2cn(C)cn2)C[C@H]1C
- Vaccinia stage: 30
- Vaccinia stage Venus: 19

compound: COc1ccc(NC(=O)Nc2ccc3c(c2)C(=O)N([C@@H](C)CO)C[C@@H](C)[C@@H](CN(C)C(=O)Nc2ccc(OC)cc2)OCCCC[C@H](C)O3)cc1
- Vaccinia stage: 47
- Vaccinia stage Venus: 16

compound: COc1ccc(C#Cc2ccc3c(c2)O[C@@H](CN(C)C(=O)CN2CCOCC2)[C@H](C)CN([C@@H](C)CO)S3(=O)=O)cc1
- Vaccinia stage: ?
- Vaccinia stage Venus: /

# (further entries)
SMILES,Vaccinia stage,Vaccinia stage Venus
COc1ccc(S(=O)(=O)Nc2cccc3c2O[C@H](CN(C)C)[C@H](C)CN([C@@H](C)CO)C3=O)cc1,-3,7
C[C@H]1CN([C@@H](C)CO)C(=O)c2cccc(NC(=O)C3CCOCC3)c2O[C@@H]1CN(C)S(=O)(=O)c1ccc(F)cc1,2,6
COc1ccc(S(=O)(=O)Nc2ccc3c(c2)C(=O)N([C@H](C)CO)C[C@@H](C)[C@H](CN(C)Cc2ccncc2)OCCCC[C@@H](C)O3)cc1,17,0
COc1ccc(NC(=O)N2C[C@H](O)COC[C@H]3O[C@@H](CC(=O)NC4Cc5ccccc5C4)CC[C@@H]32)cc1,9,1
CC(C)NC(=O)N1[C@H](CO)[C@H](c2ccc(C#CC3CCCCC3)cc2)[C@@H]1C#N,?,/
C[C@@H]1CCCCO[C@@H](CN(C)S(=O)(=O)c2cn(C)cn2)[C@H](C)CN([C@H](C)CO)C(=O)c2cc(NC(=O)Nc3ccc(F)cc3)ccc2O1,12,5
C[C@@H]1CN([C@@H](C)CO)C(=O)c2cccc(NC(=O)c3nc4ccccc4s3)c2O[C@@H]1CN(C)Cc1ccc(Cl)c(Cl)c1,-18,-21
C[C@H]1CCCCO[C@@H](CN(C)C)[C@@H](C)CN([C@@H](C)CO)C(=O)c2cc(NC(=O)c3ccccc3)ccc2O1,-15,-5
COc1ccc(NC(=O)Nc2ccc3c(c2)C(=O)N([C@H](C)CO)C[C@@H](C)[C@H](CN(C)Cc2ccc4c(c2)OCO4)OCCCC[C@H](C)O3)cc1,?,/
CC=Cc1ccc2n(c1=O)C[C@@H]1[C@@H](CO)[C@H](C(=O)N(C)C)[C@H]2N1CCc1ccccc1 (mixture of isomers),5,4
O=C(C[C@@H]1C=C[C@@H](NC(=O)NC2CCCCC2)[C@@H](CO)O1)NCc1ccccc1,-3,-4
O=C(CN1CCOCC1)N1CCCCN2[C@H](C1)[C@H](c1ccc(-c3ccccc3F)cc1)[C@@H]2CO,6,10
C[C@@H]1CN([C@H](C)CO)C(=O)c2cc(N(C)C)ccc2O[C@@H]1CN(C)Cc1ccc(Oc2ccccc2)cc1,-23,-16
C[C@H](CO)N1C[C@H](C)[C@H](CN(C)S(=O)(=O)c2ccc(F)cc2)Oc2ccc(NC(=O)CCC(F)(F)F)cc2C1=O,2,6
C[C@@H]1CCCCO[C@@H](CN(C)S(=O)(=O)c2ccc(Cl)cc2)[C@@H](C)CN([C@@H](C)CO)C(=O)c2cc(NC(=O)CCCN(C)C)ccc2O1,21,7
COCC#Cc1cnc2c(c1)C(=O)N([C@H](C)CO)C[C@H](C)[C@H](CN(C)Cc1ccc3c(c1)OCO3)O2,7,12
CCC(=O)N(C)C[C@@H]1Oc2ncc(C#C[C@H](C)O)cc2C(=O)N([C@H](C)CO)C[C@H]1C,31,24
O=C(C[C@H]1CC[C@H](NS(=O)(=O)c2ccc(F)cc2)[C@H](CO)O1)NCc1ccncn1,-5,-4
Cc1cccc(-c2ccc([C@H]3[C@H](CO)N4C(=O)CN(C(=O)Cc5ccccn5)C[C@@H]34)cc2)c1,12,1
COCC(=O)N1CC2(C1)[C@H](c1ccc(-c3cccc(F)c3)cc1)[C@@H](CO)N2C(=O)C1CC1,-8,-4

# Some of the compounds tested (hit frequency here may not be typical).
